Arbovirus inh: antivirals against arbovirus infection, primary screen, cell-based, full library, 10K replicate subset; 200,000 tested, 0.37% active; arbovirus infection cell-based antiviral screen; inhibition, % at 10 µM;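 active means inhibition from about 30%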;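 further: bluetongue infection of BSR cells; cell survival read as ATP light after 72 h; 0% = infected wells without compound and 100% = uninfected wells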
Mtb bLac sens: beta-lactam sensitization of Mtb H37Rv, H37Rv; AID 434955, 2010; 330,000 tested, 0.27% active; inhibition, % at 25 µM; M. tuberculosis H37Rv growth with meropenem, percent inhibition; hits of this screen are not shown here;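 active means about 74% or more and at least 40 points above the plate without the antibiotic, then above 30% in a dose series; inconclusive means first-round hits that could not be retested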;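 further: growth measured after seven days incubation then overnight dye step; 0% = bacteria only wells and 100% = bacteria with antibiotic; twin plates without the antibiotic show which effects depend on it; some results filed as inactive read as strong as hits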
YopH inh: YopH tyrosine phosphatase inhibitors, primary screen, biochemical, fluorescence Ex485/Em525; YopH tyrosine phosphatase [Yersinia enterocolitica]; inhibition, %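 (about 10 µM by stock and volumes)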; 140,000 tested, 0.16% active;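 active means inhibition of 50% or more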;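 further: controls were vehicle for no effect and minimum signal wells for full effect; inactives centre near -20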
RecA intein inh: Mtb RecA intein splicing inhibitors, primary screen, biochemical, fluorescence, HTS; inhibition, %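 (about 9 µM by stock and volumes)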; cell-free RecA intein splicing; Protein RecA (Mycobacterium tuberculosis (strain ATCC 25618 / H37Rv)), P9WHJ3; 290,000 tested, 0.75% active; in the data active means inhibition above about 30%; inconclusive means no clear call, values can overlap the other calls;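 further: 0% = vehicle wells and 100% = reference inhibitor control wells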
Target sequence (P9WHJ3 whole entry, looked up): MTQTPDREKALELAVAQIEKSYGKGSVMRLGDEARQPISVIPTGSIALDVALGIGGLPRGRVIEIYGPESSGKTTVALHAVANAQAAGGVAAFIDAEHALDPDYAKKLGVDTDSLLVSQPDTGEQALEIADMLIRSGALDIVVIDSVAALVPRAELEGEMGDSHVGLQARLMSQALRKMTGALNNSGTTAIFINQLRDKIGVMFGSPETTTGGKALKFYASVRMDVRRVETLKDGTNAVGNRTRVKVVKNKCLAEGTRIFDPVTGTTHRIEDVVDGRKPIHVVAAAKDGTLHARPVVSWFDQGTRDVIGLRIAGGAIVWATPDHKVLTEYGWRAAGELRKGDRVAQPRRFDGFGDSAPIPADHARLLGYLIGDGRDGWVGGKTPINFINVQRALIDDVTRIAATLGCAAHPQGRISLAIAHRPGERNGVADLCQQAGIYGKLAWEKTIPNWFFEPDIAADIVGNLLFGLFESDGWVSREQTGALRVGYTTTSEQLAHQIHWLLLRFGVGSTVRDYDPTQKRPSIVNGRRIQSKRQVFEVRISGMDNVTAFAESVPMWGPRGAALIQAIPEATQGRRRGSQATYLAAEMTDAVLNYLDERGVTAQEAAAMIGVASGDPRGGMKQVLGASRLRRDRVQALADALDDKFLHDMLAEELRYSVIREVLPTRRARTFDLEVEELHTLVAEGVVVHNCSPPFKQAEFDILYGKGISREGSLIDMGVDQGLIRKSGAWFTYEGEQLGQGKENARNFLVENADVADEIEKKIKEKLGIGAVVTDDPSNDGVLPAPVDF
Mtb growth: M. tuberculosis H37Rv growth inhibitors, H37Rv strain (AID 1626); M. tuberculosis H37Rv growth inhibition; higher % means a stronger effect; one-dose inhibition, % at 10 µM; IC50 in µM for titrated hits; 220,000 tested, 0.95% active;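 active means confirmed in a dose series; inconclusive means inhibition above 80% but not taken into the dose series; inactive means below 80% or under 30% at every dose of the series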;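 further: bacteria incubated seven days before Alamar blue readout; 0% = bacteria only wells and 100% = bacteria with antibiotic wells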
Arbovirus inh repeat: second read-out of Arbovirus inh, no call of its own (marks repeat the call); inhibition, %; measured here: 10K subset replicate screen; many hits read low in the repeat;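 first of two repeat runs on a subset; 0% = infected and 100% = uninfected wells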
Active calls of the source: *; ? = inconclusive; nt = not tested or not shown. A portion of the library; the hit share may differ from the screen's.

SMILES	Arbovirus inh	Mtb bLac sens	YopH inh	RecA intein inh	Mtb growth	others
O=C(CSc1ccc(Cl)cc1)Nc1ccc(N2CCN(C(=O)c3ccco3)CC2)cc1	-22	-5	-17	5.1	-9%
COc1ccc(C(=O)NC(=O)Nc2ncccc2C)cc1	1	3	-21	0.8	-9%
COc1cc(NC(=O)c2csc3c2CCCC3)ncn1	-2	3	-34	1.1	17%
COc1ccc(CC(NC(C)=O)C(=O)NC2CCN(C(=O)c3ccc(OC)c(OC)c3)CC2)cc1OC (stereo not drawn)	-6	-2	nt	0.3	-5%
CC(C)(C)NC(=O)C1CCN(S(=O)(=O)c2cccc(C(F)(F)F)c2)CC1	-1	2	nt	-1.4	10%
COc1ccc(NC(=S)N(CCCN2CCN(C)CC2)Cc2cccs2)cc1	12	-10	-26	0.1	7%
Cc1ccc(-c2cc(-c3ccc(F)cc3)n[nH]2)c(O)c1	nt	14	nt	2.7	nt
CC1CC(=O)Nc2ccccc2N1S(=O)(=O)c1ccc(C#N)cc1 (stereo not drawn)	nt	-7	nt	-3.0	-5%
CCN(CC)S(=O)(=O)c1ccc(NC(=O)C2CCCN(C(=O)c3ccc(Cl)cc3)C2)cc1 (stereo not drawn)	13	6	-37	-1.4	6%
CCN1CCN(C(=O)c2cc3c(-c4ccc(Cl)cc4)nn(C)c3s2)CC1	-20	4	-18	nt	10%	Arbovirus inh repeat=-15
O=C(O)Cn1c(=O)c2cccn2c2ccccc21	nt	0	nt	0.5	nt
CC(=O)Oc1ccc2c(=O)c(Oc3ccccc3)coc2c1OC(C)=O	-18	-4	5	-2.6	-3%
CCN(CC)S(=O)(=O)c1ccc(N2CCN(C)CC2)c(NC(=O)Nc2ccccc2F)c1	nt	-9	nt	0.8	nt
Cc1cc(C)nc(NN2C(=O)C=CC2=O)n1	nt	1	nt	-2.3	nt
O=C(O/N=C(/c1ccccc1)c1ccncc1)c1ccccc1[N+](=O)[O-]	6	1	nt	1.3	-4%
CCOC(=O)c1sc(NC(=O)CSc2nc(C)cc(C)c2C#N)c(C#N)c1C	6	-8	-36	-0.9	-8%
CN(C)c1ncc(CN2CCC(C(=O)Nc3ccc(-n4cccn4)cc3)CC2)s1	nt	-11	nt	-4.0	nt
COc1cccc2cc(C(C)N(CCCN3CCOCC3)C(=S)Nc3cc(C)ccc3C)oc12 (stereo not drawn)	11	2	nt	2.9	3%
O=C(O)c1cccc(N2CCCCS2(=O)=O)c1	1	-2	-25	3.0	-9%
CCC(=O)Nc1ccc(C(=O)OCC(=O)c2ccc(C)c([N+](=O)[O-])c2)cc1	3	17	-49	0.8	2%
Cc1ccc(C(=O)Nc2c(C(=O)N3CCOCC3)cnn2-c2ccccc2)cc1	3	-6	2	1.2	3%	Arbovirus inh repeat=8
C=CCn1c(-c2ccccc2)ccc(C#N)c1=O	-13	5	-33	3.6	-12%
CN(c1ccccc1)c1ccc(/C=c2\s/c(=C(/C#N)C(=O)C(C)(C)C)n(Cc3ccco3)c2=O)cc1	2	-5	4	-5.1	10%
c1ccc(C2NCc3ccccc3-n3cccc32)cc1 (stereo not drawn)	0	3	-4	2.5	6%	Arbovirus inh repeat=-3
Cc1ccc2cc(CN(Cc3ccc(F)cc3)Cc3nnnn3C3CCCC3)c(=O)[nH]c2c1	-28	4	-17	13	4%

By substructure, the entries above with a tert-butyl group
SMILES	Arbovirus inh	Mtb bLac sens	YopH inh	RecA intein inh	Mtb growth	others
CC(C)(C)NC(=O)C1CCN(S(=O)(=O)c2cccc(C(F)(F)F)c2)CC1	-1	2	nt	-1.4	10%
CN(c1ccccc1)c1ccc(/C=c2\s/c(=C(/C#N)C(=O)C(C)(C)C)n(Cc3ccco3)c2=O)cc1	2	-5	4	-5.1	10%

Going on with the list:
SMILES	Arbovirus inh	Mtb bLac sens	YopH inh	RecA intein inh	Mtb growth	others
N/C(=N\NC(=O)c1cccc(F)c1)c1cc2ccccc2oc1=O	nt	16	nt	0.0	-13%
CC(C)C(=O)N1CCC(n2nccc2NC(=O)CCOc2ccccc2)CC1	nt	2	nt	-2.2	nt
COc1cccc(NC(=O)N[C@@H](Cc2ccccc2)C(=O)O)c1	6	-6	-45	2.5	2%
Fc1cccc(Nc2nc3ccccc3n3nnnc23)c1	-5	-3	-42	1.0	9%
COc1ccccc1-n1cnc2c(c1=O)c1nc3ccccc3nc1n2-c1ccc(C)c(C)c1	-8	nt	-23	1.3	2%
Cc1ccc(Nc2ncc(C(=O)NCCCN3CCN(C)CC3)c3ccccc23)cc1Cl	-26	-2	nt	2.4	6%
CC1Cc2ccccc2N1C1=NS(=O)(=O)c2ccccc21 (stereo not drawn)	5	5	-53	0.2	-2%	Arbovirus inh repeat=-3
O=C(CNC(=O)c1cc2c(s1)CCC2)Nc1ccccc1Br	2	-1	4	-1.0	-1%
CC1=CC2(C#N)C3(N=C(N)C2(C#N)C(c2ccccc2)N1)OCCO3 (stereo not drawn)	6	nt	-46	nt	-2%
CN(C)c1cc(-c2ccc(Cl)cc2)oc(=O)c1Cl	nt	-10	nt	-3.0	-6%
CCc1c(C)c(C#N)c2nc3ccccc3n2c1NCC1CCCO1 (stereo not drawn)	-5	-7	5	-49	-5%
CCc1ccc(NC(=O)CSc2nc3c(c(=O)n(C)c(=O)n3C)n2C)cc1	0	3	-24	1.0	nt	Arbovirus inh repeat=0
CCN(CC(=O)Nc1c(F)cccc1F)C(=O)c1ccc(N2C(=O)c3ccccc3C2=O)cc1	nt	-4	nt	-1.5	nt
C/C(=N\NC(=O)c1c(C)nc2ccccn12)c1ccc(N2CCOCC2)cc1	5	3	nt	-3.6	2%
CCCOc1ccc(C(=O)CCN2CCCCC2)cc1	-11	nt	-49	-0.7	-16%
C/C(=N/NS(=O)(=O)c1ccc(F)cc1)c1ccncc1	nt	-13	nt	-2.4	nt
COc1ccccc1NC(=O)c1ccc(NC(=O)COC(=O)C2CCCO2)cc1 (stereo not drawn)	9	nt	nt	nt	1%
CS(=O)(=O)N1CCN(c2ccccc2NC(=O)c2ccc(-c3ccc(Cl)cc3Cl)o2)CC1	8	-10	-109	2.7	-3%
COC(=O)CN1C(=O)C(O)(CC(=O)c2ccc(C)cc2)c2cc(Br)ccc21 (stereo not drawn)	-11	1	-31	0.3	-4%	Arbovirus inh repeat=0
O=C1c2ccccc2C(=O)N1c1cccc(-c2nc3ccccc3o2)c1	3	-2	6	-3.4	-8%
CCN(CC)S(=O)(=O)c1ccc(NC2c3ccccc3C(=O)N2Cc2ccc3c(c2)OCO3)cc1 (stereo not drawn)	-7	-7	nt	6.8	10%	Arbovirus inh repeat=-2
COc1ccc(NC(=O)CN(c2ccccc2)S(=O)(=O)c2ccccc2)c(OC)c1	nt	-2	nt	4.4	2%
COCCNC(C)C(=O)Nc1ccc(Br)cc1 (stereo not drawn)	2	-4	-14	1.1	-6%
O=C(/C=C/c1ccc2c(c1)OCCCO2)c1ccc2ccccc2c1O	32*	48	-6	1.0	17%
COc1cccc(Oc2coc3c(CN4CCOCC4)c(O)ccc3c2=O)c1	-4	-4	-36	-8.6	-5%
SMILES	Arbovirus inh	Mtb bLac sens	YopH inh	RecA intein inh	Mtb growth	others
CCC(=O)Nc1ccc(N2CCOCC2)c(S(=O)(=O)Nc2ccc(OC)cc2)c1	-1	-6	nt	nt	8%
Cc1cc2c(cc1S(=O)(=O)NCc1ccccc1Cl)OCCN2C	nt	-5	nt	0.1	nt
COc1ccc(C(=O)NNC(=O)CSc2nnc(COc3ccc4ccccc4c3)n2C)cc1	-7	0	-27	-0.2	-9%
CCN(CC(=O)NC1CCS(=O)(=O)C1)S(=O)(=O)c1cc(C)ccc1C (stereo not drawn)	nt	1	nt	-4.1	nt
Cc1cc(NC(=O)C2CC(c3ccc(F)cc3)=NO2)n(-c2ccccc2)n1 (stereo not drawn)	10	10	-25	-1.3	-3%	Arbovirus inh repeat=-2
COC(=O)c1cc(S(=O)(=O)N(C)C2CCCCC2)cn1C	nt	-1	nt	1.2	nt
Cc1csc2ncc(C(=O)NCc3ccc4c(c3)OCO4)c(=O)n12	nt	-4	nt	-4.6	1%
CCCc1cc(-c2nc(-c3ccc(C)cc3)cs2)ccn1	-18	99	-21	5.0	7.6µM*
COc1ccc(OC)c(/C=N\NC(=O)CC(=O)NCCc2ccccc2)c1	31*	0	nt	-3.3	6%
Cc1noc(C)c1CC(=O)NC1CC(C)(C)Cc2c1cnn2-c1ccccc1 (stereo not drawn)	nt	-15	nt	0.4	nt
COc1ccc(C(C(=O)NC2CCCC2)N(C(=O)c2snc(-c3ccc(F)cc3)c2N)c2ccc(F)cc2)cc1 (stereo not drawn)	-18	73	-31	-1.8	-9%
COc1ccc2c(c1)Cc1sc(NC(=O)c3cccnc3)nc1-2	1	1	nt	3.7	-4%
Nc1c2c(nc3sc4c(c13)CCCC4)CCCC2	24	92	nt	2.2	?
COc1cccc(CNC(=S)Nc2cccc(Cl)c2C)c1	nt	6	nt	0.2	nt
COc1cccc(N/C(SC)=C(/C#N)C(N)=O)c1	-1	0	-5	6.2	-3%
CCN(CC)c1ccc2cc(C(C)=O)c(=O)oc2c1	-3	14	7	-161	-12%
CC(C)c1ccc(NC2CCCN(C(=O)c3ccc4nccnc4c3)C2)cc1 (stereo not drawn)	nt	-6	nt	-2.3	nt
O=c1nc(N2CCCC2)nc(N2CCCC2)[nH]1	nt	-1	nt	0.7	nt
Cc1cc(C)n(C(=O)c2sc3cc(F)ccc3c2Cl)n1	1	0	-22	-1.8	-10%
Cc1ncc(CN2CCN(CCC(C)C)C(CCO)C2)s1 (stereo not drawn)	-1	-3	nt	2.6	0%
CCOC(=O)c1c(NC(=O)COC(=O)CCCOc2ccc(OC)cc2)sc(C(=O)NC)c1C	nt	-2	nt	11	nt
COc1ccc(CC(=O)Nc2cccc3ncccc23)cc1OC	-3	-11	nt	-5.5	0%
CC(NC(=O)COc1ccc(/C=N/NC(=O)CO)cc1)c1ccccc1 (stereo not drawn)	nt	-11	nt	-0.4	nt
COc1ccc(CCC(=O)Nc2ccc3c(c2)OCO3)cc1	nt	79	nt	-2.5	nt
CC(C)C1Cc2[nH]c(=O)c(C(=O)O)cc2CO1 (stereo not drawn)	-1	-4	1	0.8	2%

Part of the list above in order of length of the SMILES, low to high.
SMILES	Arbovirus inh	Mtb bLac sens	YopH inh	RecA intein inh	Mtb growth	others
O=c1nc(N2CCCC2)nc(N2CCCC2)[nH]1	nt	-1	nt	0.7	nt
CCC(=O)Nc1ccc(N2CCOCC2)c(S(=O)(=O)Nc2ccc(OC)cc2)c1	-1	-6	nt	nt	8%
COc1ccc(C(=O)NNC(=O)CSc2nnc(COc3ccc4ccccc4c3)n2C)cc1	-7	0	-27	-0.2	-9%

(list continues)
SMILES	Arbovirus inh	Mtb bLac sens	YopH inh	RecA intein inh	Mtb growth	others
Cc1cc(O)ccc1NC1=CC(=O)CC(C)(C)C1	-3	12	-5	-3.5	5%
O=C(Cc1ccccc1F)Nc1nc2ccccc2[nH]1	1	55	nt	38*	14%
Cc1ccc(C)c(S(=O)(=O)Nc2ccc(C(=O)NCC(c3ccco3)N3CCCCC3)cc2)c1 (stereo not drawn)	nt	-15	nt	-2.6	nt
Cc1ccccc1CSc1nnc(NC(=O)C2COc3ccccc3O2)s1 (stereo not drawn)	48*	-4	-16	2.2	3%
O=S1(=O)N=C2CCCN2C(c2ccc(F)cc2)N1 (stereo not drawn)	5	2	-22	-0.1	2%
CN(Cc1ccccc1)C(=S)NC(=O)c1cccs1	nt	97	nt	1.9	nt
COc1cc(C(=O)OCC(=O)Nc2sccc2C(N)=O)cc(OC)c1OC	-10	4	nt	-0.8	3%
COc1cccc(CNC(=O)CCn2ccc3cc(S(=O)(=O)N4CCC(C)CC4)ccc32)c1	nt	0	nt	1.5	nt
COc1cccc(OC)c1C(=O)Nc1ccc(N2CCN(C(=O)c3ccco3)CC2)cc1	nt	2	nt	1.2	nt

Pulled by structure from the entries so far (2):
SMILES	Arbovirus inh	Mtb bLac sens	YopH inh	RecA intein inh	Mtb growth	others
COc1cccc(CNC(=O)CCn2ccc3cc(S(=O)(=O)N4CCC(C)CC4)ccc32)c1	nt	0	nt	1.5	nt
COc1cccc(OC)c1C(=O)Nc1ccc(N2CCN(C(=O)c3ccco3)CC2)cc1	nt	2	nt	1.2	nt
